Bioassay records as filed in PubChem BioAssay.
Menin MLL FP FL – menin-MLL binding inhibition, fluorescein peptide | FP activity change, % at 61.4 µM | AID 1766 | 290,000 tested, under 10 active | Fluorescence polarization, fluorescein-MLL peptide displacement from menin; inconclusive = falling polarisation curve, or a change in total fluorescence; inactive = total fluorescence flat and polarisation flat or rising; no compound was filed as active; the % refers to the polarisation; negative = inhibition;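 also: % of control where 0% means no effect; inhibitors lower the polarisation; unlabelled MLL peptide was the positive control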
gsp ag – activates gsp, the McCune-Albright syndrome mutation; gsp mutant cells, cAMP HTRF, 30 min; control for the full effect not named in the record; hit rate 0.13% among 340,000; AID 624287; Potency, µM (highest dose often 76.9 µM), for the others: top-dose activation (cAMP increase), most hits filed as activators; active = well fitted activation curve with a large enough effect; inconclusive = small, poorly fitted or top-dose-only effect, or another doubt; inactive = no such curve, though single readings can be large or run the other way; cell line not stated here;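 also: phosphodiesterase inhibitor Ro 20-1724 added with compounds to block cAMP breakdown; potency is read from the fitted curve at half-maximal effect; nearly all actives have a fitted effect of over 60% in size; about a fifth of the inactives were tested at one dose only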
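Cells in DMEM/10% FBS with G418 were pretreated with compounds in DMSO plus […] (300 uM stock) for 30 min at 37C. cAMP was measured by HTRF (cAMP-d2 plus anti-cAMP antibody-K) after 30 min at room temperature.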
ClpP mod – qHTS Assay for Activators of ClpP | purified B. subtilis ClpP, FRET peptide cleavage, 20 min | Potency, µM (top dose mostly 57.5 µM), for the others: at the highest dose activity change, negative = active | hit rate 1.9% among 340,000 | ATP-dependent Clp protease proteolytic subunit (Bacillus subtilis (strain 168)), P80244; active = well fitted falling curve with a large enough effect; inconclusive = small, poorly fitted or top-dose-only effect; inactive = no such curve, though single readings can be large or run the other way; also: potency is read from the fitted curve at half-maximal effect; the source files actives as falling curves though it sought activators and does not explain the sign; nearly all actives have a fitted effect of over 65% in size; many hits overshoot -100%
Target sequence (P80244 whole entry, looked up): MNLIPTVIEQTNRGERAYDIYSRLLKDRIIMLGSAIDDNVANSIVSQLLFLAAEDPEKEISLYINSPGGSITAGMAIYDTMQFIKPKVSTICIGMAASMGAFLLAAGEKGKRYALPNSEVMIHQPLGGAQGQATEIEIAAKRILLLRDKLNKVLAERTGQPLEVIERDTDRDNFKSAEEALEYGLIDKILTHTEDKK
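Buffer: 100 mM Tris/HCl pH8, 100 mM KCl, 0.05% low protease BSA, 2.5% glycerol, 0.01% Tween-20. ClpP 10 microg/mL final; 20 min RT; delta FRET normalized to ADEP and DMSO controls.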
TRPV1 potentiator – human TRPV1 potentiation | Q8NER1 | TRPV1-expressing cells, Fluo-8 calcium influx, capsaicin EC20 potentiation; host cell line not named in the record; control for the full effect not named in the record | potentiation, % at 8.33 µM | hit rate 0.02% among 320,000; active means potentiation above 80%; inconclusive means 30% to 80%; inactive means below 30%; also: 0% is about no effect
Target sequence (Q8NER1 whole entry, looked up): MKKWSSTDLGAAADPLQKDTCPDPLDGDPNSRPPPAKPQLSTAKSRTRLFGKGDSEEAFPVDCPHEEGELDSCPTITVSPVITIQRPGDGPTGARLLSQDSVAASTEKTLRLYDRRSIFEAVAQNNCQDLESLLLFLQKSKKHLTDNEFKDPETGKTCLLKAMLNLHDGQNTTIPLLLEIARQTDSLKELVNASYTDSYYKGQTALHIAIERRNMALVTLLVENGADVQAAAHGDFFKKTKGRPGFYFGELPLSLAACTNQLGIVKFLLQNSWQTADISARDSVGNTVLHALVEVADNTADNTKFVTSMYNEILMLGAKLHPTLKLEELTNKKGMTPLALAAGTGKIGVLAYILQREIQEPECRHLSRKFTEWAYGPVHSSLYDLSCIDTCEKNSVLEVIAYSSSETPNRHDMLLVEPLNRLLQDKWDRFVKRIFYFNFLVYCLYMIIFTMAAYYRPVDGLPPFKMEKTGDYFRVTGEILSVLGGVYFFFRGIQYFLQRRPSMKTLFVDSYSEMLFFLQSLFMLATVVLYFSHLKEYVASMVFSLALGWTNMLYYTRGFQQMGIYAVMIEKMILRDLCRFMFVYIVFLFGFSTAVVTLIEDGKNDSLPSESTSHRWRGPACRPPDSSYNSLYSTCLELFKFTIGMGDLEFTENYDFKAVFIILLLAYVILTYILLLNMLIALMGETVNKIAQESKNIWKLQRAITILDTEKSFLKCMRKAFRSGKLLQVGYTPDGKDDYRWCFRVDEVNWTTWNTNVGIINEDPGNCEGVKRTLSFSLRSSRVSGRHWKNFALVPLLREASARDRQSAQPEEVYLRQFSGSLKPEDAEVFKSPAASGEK
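Cells expressing TRPV1 were dye-loaded with Fluo-8 and read kinetically: 10 s baseline, 3 min after compound (agonist portion), then 2 min after EC20 capsaicin (allosteric enhancer portion). Calcium-bound dye fluorescence at 480/520 nm.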
gsp antagonist – antagonists of gsp mutant (McCune-Albright syndrome); gsp-mutant cells, cAMP HTRF, 30 min; control for the full effect not named in the record; Potency, µM (titrated, usually from 76.9 µM), inactives show top-dose activity change, negative = inhibition, most hits filed as inhibitors; hit rate 0.4% among 340,000; AID 624288; active = falling curve of any shape with a large fitted effect; inconclusive = falling curve, mostly with a smaller effect; inactive = flat or rising curve; cell line not stated here;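 also: intracellular cAMP measured with PDE inhibitor Ro 20-1724 present during compound exposure; potency is read from the fitted curve at half-maximal effect; % is scaled to controls: 0 for no effect and ±100 for the full control effect; nearly all actives have a fitted effect of over 65% in size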
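Measurement of cellular cAMP by homogeneous time-resolved fluorescence following a 30 min compound exposure at 37C. The PDE inhibitor […] was present throughout; the assay buffer was DPBS with 0.05% BSA and 0.005% Tween 20.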
Sfp inh – inhibitors of Bacillus subtilis Sfp phosphopantetheinyl transferase; Potency, µM, inactives show max response, negative = inhibition, most hits filed as inhibitors; Q9F4F7; hit rate 3.5% among 310,000; Biochemical Sfp PPTase activity, qHTS; AID 1490; active = well fitted inhibition curve with a large enough effect; inconclusive = small, poorly fitted or top-dose-only effect, or another doubt; inactive = no such curve, though single readings can be large or run the other way;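 also: the enzyme is Sfp with the accession as filed and its product quenches rhodamine fluorescence; potency is read from the fitted curve at half-maximal effect; 0% = enzyme reaction without inhibitor and -100% = no enzyme wells; top concentration of the series not given in the record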
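With Hepes-Na pH 7.6 buffer containing 10 mM MgCl2, Sfp (15 nM) modified BHQ-2-YbbR (12.5 uM) using rhodamine-CoA (5 uM). Two reads 30 minutes apart at 525/598 nm yielded each well's rate.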
TRPML1 blocker – blocks the human TRPML1 channel; TRPML1-inducible cells, Ca2+ dye fluorescence, FDSS; stronger effect = lower value; inhibition of EC80 agonist-evoked calcium signal; activity change, negative = inhibition, % (concentration not given with the values); hit rate 0.02% among 390,000; Q9GZU1; in the data active means activity change below about -50%; inconclusive means about -30% to -50%; inactive means above about -30%;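 also: stimulus is agonist 54-4 at its EC80 concentration; % is scaled to controls: 0 for no effect and ±100 for the full control effect; compound concentration not given in the record; the text of the record puts the active cut at -80%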
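TRPML1-DL cells, Tet-induced overnight (~16 h, 37 °C) at 1,500 cells/well, were loaded with Ca8 no-wash dye plus quencher for 45-90 min at room temperature. Compounds were pinned during FDSS kinetic reading; agonist 54-4 at EC80 (4 uM final) then added.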
* marks the source's active call; other numbers are inactive results; u = inconclusive; x = no result given; [ ] = remark or other dose. Random draw from the library; 4.9% or so of the library scored in one or more.

SMILES	Menin MLL FP FL	gsp ag	ClpP mod	TRPV1 potentiator	gsp antagonist	Sfp inh	TRPML1 blocker
Cc1cc(C(=O)OCC(=O)Nc2ccccc2F)c(C)o1	0.9	-41%[inhibitor]	-0.3%	1	4%	2%	36
CCOc1ccc2nc(SCC(=O)NCc3ccco3)sc2c1	2.6	-98%[inhibitor]	-2.6%	-3	-11%	-1%	12
O=c1c2ccccc2nc(COc2ccccc2)n1/N=C/c1c[nH]c2ccccc12	1.1	5%	59%	2	-6%	-15%	-7
CCOc1cccc(C2C(C#N)=C(N)Oc3cc(C)n(Cc4ccccn4)c(=O)c32)c1OCC (stereo not given)	-0.1	u	-3.4%	1	u	22%	-13
CC(C)(C)NC(=O)CSC(=Nc1cccc(F)c1)NC#N	22	-15%	0.1%	13	-25%	15%	16
COc1ccc(OCC(=O)OCCN2C(=O)c3ccccc3C2=O)cc1	1.3	9%	0.0%	20	14%	2%	4
CCN1CCN(C(=O)c2ccc(C(F)(F)F)cc2)CC1	-1.7	-1%[15.4 µM]	x	-9	-5%	17%	14
CCC(C)(C)n1nnnc1C(CC(C)C)N1CCC(C(N)=O)CC1 (stereo not given)	-4.3	11%	1.1%	-23	3%	-7%	-24
C[C@H](CO)N1C[C@H](C)[C@@H](CN(C)Cc2ccccc2)OCc2cnnn2CCCC1=O	x	u	-3.1%	x	x	x	-1
CSC1=NSC2=NC(=O)/C(=C\c3ccc(OC(=O)c4ccco4)cc3)C(=N)N12	u	2%[15.4 µM]	1.9%	2	u	-8%	-3
CON(C)S(=O)(=O)c1ccc2c(c1)N(Cc1ccc(C)cc1)C(=O)C1CCCN21 (stereo not given)	8.8	34%	x	-22	-5%	9%	-12
Cc1cc2cc(OCc3ccccc3)ccc2n1C	6.4	-24%	1.8%	u	5%	14%	7
COc1cc(/C=C2\C(=O)NN(c3ccccc3)C2=O)ccc1OCC(N)=O	-3.7	x	x	-7	x	19%	x
O=C(Nc1ccc2nc3n(c(=O)c2c1)CCCCC3)C(=O)N1CCN(c2ccccc2)CC1	0.6	-6%	0.8%	16	10%	16%	-4
c1ccc(-c2nc3ccccc3c3nncn23)cc1	2.5	-5%[15.4 µM]	0.6%	28	0%	12%	4
O=C(NCCc1ccccc1)C1COc2ccccc2O1 (stereo not given)	1.7	-3%	1.5%	-9	6%	4%	43
CCN1CCN(c2nc3sc4c(c3c3ncnn23)CC(C)CC4)CC1 (stereo not given)	-0.9	17%	0.3%	-7	3%	-12%	-9
CC(=O)Nc1ccc(C(=O)N/N=C/c2ccc(F)cc2)cc1	8.4	-1%	2.4%	-6	4%	-9%	14
O=C(Cc1ccc([N+](=O)[O-])cc1)Nc1ccc(Br)cn1	-4.6	-9%[15.4 µM]	0.7%	6	10%	10%	2
COC(=O)C1CCN(C(=O)COC(=O)C2CCN(S(=O)(=O)c3c(Cl)cccc3Cl)CC2)CC1	x	-20%	-1.5%	-11	-6%	x	0
O=C(c1cccc(S(=O)(=O)NCc2ccccc2)c1)N1CCN(c2ccccc2Cl)CC1	x	4%	-1.5%	x	u	x	15
CCCNC(=O)c1ccc2c(=O)c(O)c(C)[nH]c2c1	x	x	-7.2%	-10	8%	-13%	9
COCC(=O)OCn1nnc2ccccc2c1=O	0.1	0%	0.0%	21	15%	-1%	4
NC(=O)C[n+]1cccc(C(=O)Nc2ccccc2)c1	-7.6	1%	2.6%	12	9%	-2%	3
CCc1ccccc1OCC(=O)Nc1cccc(S(=O)(=O)NC2=NCCCCC2)c1	x	11%	-4.1%	7	-19%	x	u
COc1ccc(N/C=C(\C2OC(=O)c3ccccc32)[N+](=O)[O-])cc1 (stereo not given)	-1.4	-4%[15.4 µM]	x	-6	x	12%	0
CC(Sc1ccccc1)C(=O)NN=C1CCN(C)CC1 (stereo not given)	-1.4	-12%[15.4 µM]	x	5	4%	16%	-3
Cc1noc(C)c1NC(=O)N(C)C[C@@H]1Oc2c(NC(=O)c3ccncc3)cccc2C(=O)N([C@H](C)CO)C[C@@H]1C	x	x	1.5%	x	2%	x	2
CC(=O)C[C@@H](O)CC(=O)[C@@H]1OC(=O)[C@@H](C)C/C=C\Cc2ccccc21	x	x	-2.6%	x	7%	x	-12
CC(=O)Nc1ccc(NC(=O)COc2ccc(Cl)cc2Cl)cc1	0.7	u	-2.4%	-12	7%	4%	-14
N#C/C(=C\c1ccc(OC(F)F)cc1)C(=O)N1CCCCC1	0.1	-10%	0.2%	-13	-6%	8%	24
Cc1ccc(S(=O)(=O)N(C)CC(=O)OCC(=O)c2ccc3c(c2)NC(=O)CO3)cc1	x	-51%[inhibitor]	x	x	-17%	x	-3
O=C(/C=C/c1ccc(F)cc1)N1CC[C@@]2(O)CCCC[C@H]2C1	-5.5	-34%[inhibitor]	x	-25	-8%	-23%	11
O=C(NCC1CCCO1)C(=O)N/N=C/c1ccc(O)c(Cl)c1 (stereo not given)	2.7	12%[15.4 µM]	x	-11	-1%	8%	23
O=C(CSC1=N/C(=C/c2ccc(Cl)c(Cl)c2)C(=O)N1c1ccccc1F)NC1CC1	5.5	-32%[inhibitor]	47%	-12	u	-31%	4
O=C(NCC1CCCO1)C1CCN(S(=O)(=O)c2cccnc2)CC1 (stereo not given)	-0.8	14%	-3.2%	-1	5%	13%	-5
CCOCCCNc1c2c(nc3cc(-c4ccc(F)cc4)nn13)CCC2	-0.2	7%	-5.7%	-2	5%	11%	-10
COc1ccc(C(=O)c2nccc3cc(OC)c(OC)cc23)cc1OC	x	u	-12%	-19	15%	x	37
CCc1ccccc1N1CC23C=CC(O2)C(C(=O)O)C3C1=O (stereo not given)	-2.1	-3%	-1.1%	u	12%	14%	-11
O=C1/C(=C/c2cccnc2)Oc2cc(OS(=O)(=O)c3ccc(Cl)cc3)ccc21	2.0	5%	-0.2%	15	2%	-4%	5
OCCC1CN(Cc2cc(F)ccc2-n2cccn2)CCN1Cc1ccc(F)cc1 (stereo not given)	0.4	-4%	-5.2%	-21	6%	14%	21
Cc1cc(C)n2cc(COc3ccc4ccccc4c3)nc2n1	3.4	4%[15.4 µM]	x	9	-1%	13%	19
CC(OC(=O)c1ccccn1)C(=O)Nc1ccc2c(c1)OCCO2 (stereo not given)	x	13%	-0.7%	-3	3%	x	-1
CC1(C)Cc2cccc(C(=O)Nc3ccncc3)c2O1	-1.1	16%[15.4 µM]	-3.2%	2	-2%	0%	19
CC(Oc1ccccc1)C(=O)Nc1ccc(S(=O)(=O)N2CCN(C)CC2)cc1 (stereo not given)	x	-55%[inhibitor]	-2.7%	11	9%	x	-2
COc1ccc(CNC(=O)CNC(=O)c2cccs2)c(OC)c1	x	8%	-0.6%	-4	-2%	-1%	-10
Cc1ccc(-n2cnc3c(sc4nccc(N(C)C)c43)c2=O)cc1	-1.8	u	-20%	15	3%	12%	3
CCOC(=O)c1c(C)[nH]c(C)c1C(=O)CSc1nncs1	0.6	0%[15.4 µM]	x	2	3%	14%	6
CCOC(=O)C1(C)NC(c2cccs2)C2C(=O)N(c3ccc(C)cc3)C(=O)C21 (stereo not given)	-1.0	10%[15.4 µM]	x	3	0%	18%	56
O=C(Nc1cccc(-c2nc3ccccc3c(=O)o2)c1)c1ccccc1	-3.3	-5%[15.4 µM]	x	1	-14%	-10%	7
Cc1cccc(CSc2ncnc3ccccc23)c1	-2.9	-5%[15.4 µM]	x	-8	-2%	-14%	19
O=C(CCCN1C(=O)c2ccccc2C1=O)NC1=NCCS1	4.6	-1%[15.4 µM]	1.3%	-3	11%	-16%	26
O=C(Nc1ccc(Cl)cc1)c1nc[nH]c1C(=O)NCc1ccccc1	x	x	-2.7%	-5	-3%	x	-7
O=C(COC(=O)CCS(=O)(=O)c1ccc(F)cc1)NC1CCCCC1	x	-2%	0.3%	-7	13%	x	-1
COCC(=O)OCC(=O)Nc1ccccc1-c1ccccc1	0.1	-5%[15.4 µM]	x	-1	x	6%	-3
Cc1cc(C)n2nc(SCC(=O)NC3CCCCC3C)nc2n1 (stereo not given)	1.0	12%	-2.3%	6	0%	21%	1
C/C(CC1CC(C)(C)OC1=O)=N\NC(N)=S (stereo not given)	-1.1	11%[15.4 µM]	x	7	14%	35µM*	8
O=C(CSc1nnc(C2COc3ccccc3O2)o1)N1CCN(c2ccccc2)CC1 (stereo not given)	-5.8	1%	-1.1%	-8	10%	25%	-7
Cc1csc(N/N=C\c2cccnc2)n1	7.8	-3%[15.4 µM]	x	-16	-3%	56µM*	-9
CCCCC(=O)Nc1cccc(NC(=O)c2ccc3c(c2)OCO3)c1	2.9	1%	20%	3	0%	16%	1

Continued.
SMILES	Menin MLL FP FL	gsp ag	ClpP mod	TRPV1 potentiator	gsp antagonist	Sfp inh	TRPML1 blocker
Clc1ccc(-c2nnc(C34CC5CC(CC(C5)C3)C4)o2)cn1	-2.6	-20%	-11%	4	-1%	11%	2
COC(=O)c1ccc(NC(=O)C(=O)N2CCN(C(=S)Nc3cccc(C)c3C)CC2)cc1	6.1	-40%[inhibitor]	-2.5%	-2	-8%	-3%	19
COC(=O)c1ccc(C2NC(=O)c3c(sc(C)c3C)N2)cc1 (stereo not given)	8.7	-9%	-3.4%	x	6%	16µM*	-17
COc1ccc(/C=C\C(=O)NCC(=O)N/N=C/c2cccc(OC)c2O)cc1	-2.8	23%	-0.3%	10	-6%	3%	8
O=C(Cc1cccs1)NC1(C(=O)NC2CCCC2)CCCCC1	2.2	-9%[15.4 µM]	25µM*	-3	1%	10%	-5
COc1cccc(NC(=O)NNS(=O)(=O)c2ccc(OC)cc2OC)c1	-1.2	18%	0.4%	12	0%	10%	2
COc1ccc(-c2sc3ccc(OC)cc3c2C#CCCO)cc1	4.0	x	4.1%	24	-15%	-23%	22
